HCMV NEC inh: cytomegalovirus nuclear egress complex inhibition; HTRF UL50-UL53 interaction, normalized percent inhibition; inhibition, % (no concentration beside the values); actives 0.15% (n = 190,000); AID 1918969;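 active means both replicates at 50% or more, plus weaker picks with an unusually low signal ratio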;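 further: stock transfer was 100 nL into about 20 µL; 0% = negative control wells and 100% = wells with untagged competitor protein; inactives centre near -12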
GIV-Gai inh: GIV-Galpha-i interaction inhibition; P08753; Galpha-i3/FITC-GIV peptide fluorescence polarization, 90 min; hits give low values; scaled: aluminum fluoride 0%, vehicle 100%; percent of control (FP), % (no concentration beside the values); actives 0.42% (n = 210,000); AID 1224905;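 active means replicate mean at 85% of control or lower, very high polarization wells dropped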;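 further: wells of about 15 µL received 100 nL stock; the first replicate is given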
Target sequence (P08753 whole entry, looked up): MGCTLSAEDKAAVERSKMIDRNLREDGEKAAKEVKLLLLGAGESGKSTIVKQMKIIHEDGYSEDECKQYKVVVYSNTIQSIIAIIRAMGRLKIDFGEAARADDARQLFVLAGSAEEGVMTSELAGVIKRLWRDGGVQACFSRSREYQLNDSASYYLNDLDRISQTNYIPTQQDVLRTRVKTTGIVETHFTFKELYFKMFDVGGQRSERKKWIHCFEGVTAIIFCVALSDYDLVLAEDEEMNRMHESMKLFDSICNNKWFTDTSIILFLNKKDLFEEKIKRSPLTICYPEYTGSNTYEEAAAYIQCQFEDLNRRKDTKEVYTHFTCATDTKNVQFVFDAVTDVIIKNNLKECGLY
Sa growth inh: S. aureus growth inhibition. S. aureus RN4220 growth, OD600, 20 h, 42 °C; hits give low values. relative growth, % (concentration not given with the values). actives 0.53% (n = 170,000). AID 720641;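 active means growth at 42 °C up to 50% and 20 or more points under that at 30 °C, or under 10% at both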;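 further: 300 nL library stock went into each well; scaled to the means of positive and negative controls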
Sa growth inh second temp: recorded beside Sa growth inh, whose call it bears; relative growth, %; measured here: growth at 30 °C;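 optical density after 20 h as mean of two plates; 100% = untreated growth and lower means inhibition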
* = called active by the depositor; · = no result given; & = joins results of further samples.

item	compound	HCMV NEC inh	GIV-Gai inh
1	COc1ccc(C2=CC(c3ccc(C)o3)n3nnnc3N2)cc1OC (stereo unspecified)	-56	·
2	Cc1cc(=O)n(Cc2ccccc2Cl)c(O)c1C#N	-29	103
3	Oc1ccc2c(c1)OCCO2	-22	·
4	CCCCN1C(=O)c2ccc(Br)cc2C1=O	-42	104
5	CC1(NC(=O)c2cn(-c3ccccc3)nc2-c2cccnc2)CCS(=O)(=O)C1 (stereo unspecified)	-4	·
6	O=C1CCSc2c1cccc2C(=O)NCc1ccccc1	·	107
7	C=CCSc1nc2c(cnn2CCO)c(=O)[nH]1	-10	100
8	C(=N\n1cnnc1)/C1CCCCC1	-32	·
9	O=C(NCc1ccco1)C(c1ccccc1)N(Cc1ccco1)C(=O)Cn1nnc2ccccc21 (stereo unspecified)	-19	106
10	COC(=O)c1cn(C(=O)COc2ccccc2Cl)c2ccccc12	-7	·
11	Cc1ccc2c3c(ccc2n1)NC1=C(C(=O)CCC1)C3C1CC=CCC1 (stereo unspecified)	-9	·
12	CN(C(=O)COC(=O)C12CC3CC(CC(C3)C1)C2)C1CCS(=O)(=O)C1 (stereo unspecified)	-18	·
13	c1cncc(-c2nnc3sc(-c4cc5ccccc5[nH]4)nn23)c1	-34	114
14	COc1cc(/C=C2/SC(=Nc3ccccc3Cl)NC2=O)cc(OC)c1	-14	108
15	Nc1ccc(OCC2CCCO2)cc1 (stereo unspecified)	-11	98

item	Sa growth inh	Sa growth inh second temp
1	58	72
2	86	82
3	94	80
4	99	95
5	101	90
6	117	98
7	·	·
8	136	86
9	96	58
10	103	89
11	98	86
12	100	92
13	·	·
14	·	·
15	81	84

(more compounds)
item	compound	HCMV NEC inh	GIV-Gai inh
16	COC(=O)C(C)Sc1nnc(-c2c[nH]c3ccccc23)n1-c1ccc(OC)cc1 (stereo unspecified)	·	101
17	CCN1C(=O)c2cc(NC(C)=O)ccc2Oc2ccccc21	-16	104
18	COc1cc(Cl)c(C)cc1-n1ccnc(NCCCOC(C)C)c1=O	-21	109
19	Cc1ccc2c(c1)c1c3n2CCNC3CCC1 (stereo unspecified)	-10&-20	116
20	CCn1c2ccccc2c2n[nH]c(=S)nc21	·	94
21	Cc1csc(SCC(=O)Nc2ccc(N3CCCCC3)cc2)n1	-11	·
22	O=C(OCCN1CCCCC1)c1cc2ccccc2o1	-12	100
23	COc1cccc(C(=O)N2CCN(C3CCC(c4ccccc4)CC3)CC2)c1OC (stereo unspecified)	-4	97
24	CS(=O)(=O)N1Cc2ccccc2CC1C(=O)O (stereo unspecified)	-8	107
25	Cc1nc2ccccc2c(=O)n1-c1ccc(NS(C)(=O)=O)cc1	-18	100
26	Cn1c(=O)c2c(nc(CN3CCN(c4ccccc4)CC3)n2Cc2c(F)cccc2Cl)n(C)c1=O	·	102
27	CCN(CC1COc2ccccc2O1)Cn1c(=O)oc2ccccc21 (stereo unspecified)	-34	·
28	COc1ccc(-c2c/c(=N\O)c3cc(F)ccc3o2)cc1	-20	·
29	COc1cccc(C(=O)N(c2ccccn2)c2ccccn2)c1	-7	·
30	COc1cc2c(cc1OC)CN(C(=O)Cc1cccs1)CC2	-16	·

item	Sa growth inh	Sa growth inh second temp
16	102	95
17	·	·
18	114	100
19	·	·
20	90	62
21	99	92
22	100	73
23	84	74
24	115	90
25	93	86
26	85	95
27	103	82
28	95	68
29	107	90
30	104	91

Later entries:
item	compound	HCMV NEC inh	GIV-Gai inh
31	Cn1c(=O)c(C(=O)Nc2ccc3c(c2)OCO3)nc2ccccc21	-102	95
32	O=c1[nH]nc(-c2ccc(Br)cc2)c2c1Nc1nnnn1C2c1ccc(F)cc1 (stereo unspecified)	-15	93
33	Cc1ccc(NC(=O)N2CCCC2c2nnc(C(=O)Nc3cccc(F)c3)s2)c(Cl)c1 (stereo unspecified)	-35	104
34	Cc1cc(C)c(S(=O)(=O)N2CCN(c3cc(=O)n4nc(-c5ccccc5)sc4n3)CC2)cc1C	-7	100
35	CCOC(=O)c1c(NC(=O)C23CC4CC(CC(C4)C2)C3)sc(C(=O)Nc2ccc(C)c(Cl)c2)c1C	-11	98
36	CC(C(=O)NC1CCCC1)n1c2ccccc2c2cn[nH]c(=O)c21 (stereo unspecified)	-7	107
37	Cc1ccc(Cn2c(C)c3cnn(CC(=O)NCc4ccccc4)c(=O)c3c2C)cc1	5	108
38	CCOC(=O)c1c(S(=O)(=O)N2CCCC(C(=O)NCc3ccc(Cl)cc3)C2)c(C)n(C)c1C (stereo unspecified)	·	100
39	COc1cc2c(cc1OC)C(C(=O)Nc1ccc(Oc3ccccc3)cc1)C(c1cccnc1)N(C)C2=O (stereo unspecified)	-2	94
40	O=C(OCC(=O)N1CCC(Cc2ccccc2)CC1)C1CCC1	-25	·
41	COc1ccc(CN2COc3ccc4c(-c5ccc(OC)cc5)cc(=O)oc4c3C2)cc1	-78	100
42	Cc1ccc(SCc2nc(-c3ccc(C(=O)NCC(C)c4ccccc4)cc3)oc2C)cc1 (stereo unspecified)	·	101
43	COc1ccc(NC(=O)c2nnc(COCC(=O)N3CCN(c4ccccc4)CC3)s2)cc1	-41	101
44	Cc1ccc(SCC(=O)NC2(C#N)CCCCC2)c(C)c1	2	·
45	Cc1cc(F)ccc1NCC(=O)Nc1ccc(C#N)cc1	3	·

item	Sa growth inh	Sa growth inh second temp
31	·	·
32	·	·
33	·	·
34	·	·
35	·	·
36	88	83
37	87	78
38	107	95
39	·	·
40	128	86
41	102	84
42	127	105
43	·	·
44	104	94
45	65	71

Next section:
item	compound	HCMV NEC inh	GIV-Gai inh
46	CCn1c(C(=O)N2CCCC2)cc2sc(Cl)cc21	·	112
47	COc1cccc(OC(=O)c2ccc(Cl)cc2Cl)c1	-18	·
48	O=C(CSc1nc2ccccc2s1)OCc1nnc(-c2ccccc2)o1	-15	·
49	CC1(C)C2CC=C(/C=N/NC(=O)C3CC3)C1C2 (stereo unspecified)	-35	·
50	Cc1ccc(NC(=S)N2CCN(CCO)CC2)c(C)c1	-10	101
51	COc1ccccc1NC(=O)c1sc2nc(C)c(C(=O)Nc3ccc(C)cc3C)c(-c3ccc(C)o3)c2c1N	-6	114
52	Cc1ccc(Oc2ncccc2NC(=O)CN2CCC(NC(=O)c3ccccc3)CC2)c2c1CCC2	-25	107
53	Cc1ccc(NCc2cccn2-c2nnc(N3CCC(C(=O)NC(C)C)CC3)s2)cc1	8	102
54	CCOc1ccc(-c2cc(-c3nc(-c4cc(OC)c(OC)c(OC)c4)no3)[nH]n2)cc1Cl	·	103
55	N#Cc1ccc[nH]c1=S	-59	·
56	Cc1cc(C)cc(C(=O)N(C)CC(=O)Nc2ccc(F)cc2)c1	-4	·
57	CN(CC(=O)NC1CCCC1)S(=O)(=O)c1c[nH]c(C(=O)N2CCCC2)c1	-9	104
58	O=c1c2ccccc2n2c(-c3ccsc3)nnc2n1Cc1ccccc1	·	100
59	CCOC(=O)C1=C(c2ccccc2)NC(=S)NC1c1cccc(OC)c1O (stereo unspecified)	-9	·
60	CCCC(=O)NCc1ccccc1Cl	-2	99

item	Sa growth inh	Sa growth inh second temp
46	124	86
47	103	92
48	93	97
49	78	89
50	113	93
51	106	86
52	95	85
53	82	82
54	90	89
55	59	54
56	99	95
57	·	·
58	108	84
59	96	66
60	120	95

More records
item	compound	HCMV NEC inh	GIV-Gai inh
61	Cc1ncc(CC(=O)O)s1	14	105
62	CCn1cc(C(=O)NCC(C)C)c(=O)c2cc(F)c(N3CCN(C(=O)c4ccco4)CC3)cc21	-15	99
63	COc1ccc(C(C(=O)Nc2ccc(C(C)C)cc2)N(Cc2ccco2)C(=O)CC2NC(=O)NC2=O)cc1 (stereo unspecified)	-24	102
64	NC(=O)/C=C1\NC(=O)CS1	-13	·
65	CCCCSc1ncnc2c1cnn2-c1ccc(Cl)cc1	-36	103
66	CCCN1C(=O)CC(=O)N=C1SCC(=O)Nc1ccccc1F	-19	·
67	COc1ccc(/C=C2\CCC/C(=C\C=N\N(C)C)C2=O)cc1	-6	·
68	Cc1cc(=O)n2nc(N3CCCC3C(=O)N3CCC(C)CC3)sc2n1 (stereo unspecified)	14	100
69	CC1CN(S(=O)(=O)c2ccc(C(=O)N=c3sc4cccc(Cl)c4n3C)cc2)CC(C)O1 (stereo unspecified)	·	101
70	S=C(NCc1cccs1)Nc1ccccc1	·	102
71	CC(C)CCNC(=O)CCc1nc(-c2nn(-c3ccc(F)cc3)c(=O)n(C)c2=O)no1	-84	115
72	COc1ccc(-c2c3c(nc4sc(C(=O)N5CCOCC5)c(N)c24)CC(C)(C)CC3=O)cc1	-15	101
73	Cc1ccc(-n2cc[nH]c(=O)c2=O)cc1C	-50	96
74	COc1ccccc1C1CC(=O)NC(C)=C1C(=O)OC1CCCCCC1 (stereo unspecified)	-5	101
75	CC(=O)Nc1nonc1-c1nnc(SCc2cccc(Br)c2)n1C	19	110

item	Sa growth inh	Sa growth inh second temp
61	99	100
62	113	80
63	94	81
64	99	90
65	88	83
66	91	86
67	98	86
68	·	·
69	89	95
70	103	81
71	·	·
72	91	88
73	·	·
74	104	89
75	101	90

Following part:
item	compound	HCMV NEC inh	GIV-Gai inh
76	O=C(COc1ccccc1)Oc1ccccc1	-15	107
77	COc1ccc(/C=C/C(=O)Nc2ccc(C)cc2C)cc1	-7	·
78	CCC(Sc1ncc(S(=O)(=O)c2ccc(C)cc2)c(=O)[nH]1)C(=O)Nc1cc(C)ccc1C (stereo unspecified)	-4	106
79	O=C(COC(=O)C(Cc1ccccc1)N1C(=O)c2ccccc2C1=O)Nc1ccc2[nH]c(=O)[nH]c2c1 (stereo unspecified)	10	·
80	Cc1cc(C)cc(-n2ncc3c(OCC(=O)N4CCCCC4)ncnc32)c1	-22	·
81	Cc1ccccc1N(Cc1nnc2n1CCCCC2)C(=O)Nc1ccc(F)cc1	7	·
82	O=C(NCCN1CCCc2ccccc21)Nc1cccc2c1CCCC2	-10	106
83	Cc1ccc(C)c(N2CCN(C(=O)CCCn3ncn4c(cc5occc54)c3=O)CC2)c1	-4	109
84	CCOC(=O)c1c(NC(=O)c2ccc(Cl)c([N+](=O)[O-])c2)sc(C(=O)Nc2ccc(C)c(Cl)c2)c1C	-15	103
85	COc1ccc(C(=O)OCC(N)=O)cc1	-26	·
86	O=C(NCc1ccc(-n2cccn2)cc1)c1cc(F)cc2c1OCOC2	0	103
87	CC(C)(C)C(=O)Nc1ccc(Br)cc1	1	101
88	CCc1ccc(C2CC(=O)NC(NC(=O)c3ccccc3)=N2)cc1 (stereo unspecified)	-36	102
89	COc1ccc2c(c1)c(=O)c1ccoc1n2C	-44	104&103
90	Cc1nc2cc(C(=O)NCCC3=CCCCC3)ccc2n1-c1ccc(Br)cc1	·	103

item	Sa growth inh	Sa growth inh second temp
76	97	94
77	101	98
78	95	106
79	83	91
80	101	94
81	90	90
82	119	98
83	106	92
84	·	·
85	118	85
86	99	85
87	109	85
88	97	91
89	86	83
90	92	70

Molecules shown so far that have a thiophene ring, fused or not, in the order listed:
item	compound	HCMV NEC inh	GIV-Gai inh
30	COc1cc2c(cc1OC)CN(C(=O)Cc1cccs1)CC2	-16	·
35	CCOC(=O)c1c(NC(=O)C23CC4CC(CC(C4)C2)C3)sc(C(=O)Nc2ccc(C)c(Cl)c2)c1C	-11	98
46	CCn1c(C(=O)N2CCCC2)cc2sc(Cl)cc21	·	112
51	COc1ccccc1NC(=O)c1sc2nc(C)c(C(=O)Nc3ccc(C)cc3C)c(-c3ccc(C)o3)c2c1N	-6	114
58	O=c1c2ccccc2n2c(-c3ccsc3)nnc2n1Cc1ccccc1	·	100
70	S=C(NCc1cccs1)Nc1ccccc1	·	102
72	COc1ccc(-c2c3c(nc4sc(C(=O)N5CCOCC5)c(N)c24)CC(C)(C)CC3=O)cc1	-15	101
84	CCOC(=O)c1c(NC(=O)c2ccc(Cl)c([N+](=O)[O-])c2)sc(C(=O)Nc2ccc(C)c(Cl)c2)c1C	-15	103

item	Sa growth inh	Sa growth inh second temp
30	104	91
35	·	·
46	124	86
51	106	86
58	108	84
70	103	81
72	91	88
84	·	·

Along the list, as entered above:
Sa growth inh second temp, compounds 76–86, in order: 94, 98, 106, 91, 94, 90, 98, 92, ·, 85, 85

Later entries
item	compound	HCMV NEC inh	GIV-Gai inh
91	Cc1ccc(S(=O)(=O)Nc2ccc(Nc3cc(N(C)C)nc(C)n3)cc2)cc1	-18	99
92	COc1ccc(CNc2nc3c(-c4ccc(C)cc4)nnn3c3ccccc23)cc1	-36	108
93	COc1cc(C2NC(=O)NC(C)=C2C(=O)OC2CCCCC2)cc(Br)c1O (stereo unspecified)	-2	101
94	Cc1cc(C)n2nc(CN(c3ccc(Cl)cc3)S(=O)(=O)c3ccccc3)nc2n1	-12	106
95	CCOC(=O)c1cnn(C(=O)c2c(C)nc3ccccn23)c1N	-41	103
96	CNCC(=O)N1CCOCC1	-3	·

item	Sa growth inh	Sa growth inh second temp
91	·	·
92	105	85
93	·	·
94	·	·
95	103	81
96	101	87

Screening data: PubChem BioAssay, ICCB-Longwood Screening Facility, Harvard Medical School
